# Screening data (PubChem BioAssay)
# Ecoli growth: E. coli growth inhibition, primary screen, OD600; Escherichia coli growth, 23 h; active compounds read low; AID 1053175, 2014; OD600 absorbance (concentration not given with the values); hit rate 0.21% among 330,000;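 active means OD600 absorbance below the run mean of sample wells minus 3.6 SD, in any replicate, cut at about 0.56 in these data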;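 further: stock transfer was 300 nL into about 60 µL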
# ALR H2O2 inh: inhibitors of human ALR sulfhydryl oxidase, primary screen, biochemical, H2O2 detection, HRP-luminol luminescence, single point. FAD-linked sulfhydryl oxidase ALR (Homo sapiens), P55789. purified ALR, DTT oxidation. inhibition, % (concentration not given with the values). hit rate 3.8% among 290,000. AID 485317, 2010;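 active means mean and each replicate at 75% or more; inconclusive means only one of the two met; inactive means neither met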;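 further: stock transfer was 7.5 nL into about 7.5 µL; 0% = neutral wells and 100% = wells with inactivated enzyme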
# Target sequence (P55789 whole entry, looked up): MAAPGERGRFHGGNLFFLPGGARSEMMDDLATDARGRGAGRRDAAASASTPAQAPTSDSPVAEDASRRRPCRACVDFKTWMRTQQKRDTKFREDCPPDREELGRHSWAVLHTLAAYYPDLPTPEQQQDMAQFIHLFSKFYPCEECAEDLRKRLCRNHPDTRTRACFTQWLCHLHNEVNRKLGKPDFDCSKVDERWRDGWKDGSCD
# Ecoli rRNA inh: reduced GFP signal of wild-type E. coli, primary screen, bacterial rRNA inhibitor project, GFP/RFP fluorescence, OD600, single point. hit rate 1.6% among 350,000. GFP signal change (wild-type ribosome), % (no concentration beside the values). AID 720706, 2013. E. coli WT GFP vs humanized-ribosome RFP mutants, 24 h; active compounds read low; DMSO median 0, no signal -100;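 active means significant combined selectivity score with lowered wild-type GFP, culture density cut under 30%, mutant RFP and density less affected; inactive means any of these conditions unmet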; further: one replicate is shown; some compounds called inactive have numbers as strong as hits
# HNF4A DNA FP: change in binding of human HNF4A to DNA, primary screen, biochemical, fluorescence polarization, FITC-DNA. AID 1224865, 2016. hit rate 0.3% among 360,000. activity change, % at 10 µM. 1 h; in the data active means activity change above about 30%, passing the limit was not always enough;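 further: controls were the assay level and a saturating level of protein; the project sought stronger binding though the title names inhibitors; some compounds called inactive have numbers as strong as hits; positive values seem to mean higher polarization but the record does not say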
# Vif A3G: inhibitors of Vif binding to APOBEC3G peptide, primary screen, biochemical, TR-FRET, GST-Vif 1-94, biotin-A3G peptide, dose response retest (AID 1117319); Virion infectivity factor (Human immunodeficiency virus type 1 group M subtype B (isolate …; TR-FRET GST-Vif / biotin-A3G peptide binding; higher % means a stronger effect; test concentration not given here; strong numbers were not always called active; inhibition, %; hits with a dose series show IC50 in µM; hit rate 0.57% among 260,000;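 active means above the screen mean plus three standard deviations and confirmed in dose response; inconclusive means results disagree or hit not tested in dose response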;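 further: Vif residues 1-94 fused to GST binding biotinylated APOBEC3G peptide 110-148; 0% = full assay without inhibitor and 100% = GST in place of GST-Vif; retest series ran down from 100 µM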
# MLL AF4-AF9 inh: inhibitors of AF4 peptide binding to AF9, primary screen, biochemical, AlphaScreen, biotin-AF4 peptide, FLAG-AF9, single point. hit rate 0.47% among 350,000. Protein AF-9 (Homo sapiens), P42568. inhibition, % at 10 µM;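 active means every replicate reaching a set inhibition limit, whatever the replicate mean, cut at about 25% in these data; inconclusive means mean inhibition reaches that limit but some replicates miss it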;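 further: 0% = plate neutral control median and 100% = total signal loss; the record names both 10 and 1 µM as test concentration; the first replicate is given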
# Target sequence (P42568 whole entry, looked up): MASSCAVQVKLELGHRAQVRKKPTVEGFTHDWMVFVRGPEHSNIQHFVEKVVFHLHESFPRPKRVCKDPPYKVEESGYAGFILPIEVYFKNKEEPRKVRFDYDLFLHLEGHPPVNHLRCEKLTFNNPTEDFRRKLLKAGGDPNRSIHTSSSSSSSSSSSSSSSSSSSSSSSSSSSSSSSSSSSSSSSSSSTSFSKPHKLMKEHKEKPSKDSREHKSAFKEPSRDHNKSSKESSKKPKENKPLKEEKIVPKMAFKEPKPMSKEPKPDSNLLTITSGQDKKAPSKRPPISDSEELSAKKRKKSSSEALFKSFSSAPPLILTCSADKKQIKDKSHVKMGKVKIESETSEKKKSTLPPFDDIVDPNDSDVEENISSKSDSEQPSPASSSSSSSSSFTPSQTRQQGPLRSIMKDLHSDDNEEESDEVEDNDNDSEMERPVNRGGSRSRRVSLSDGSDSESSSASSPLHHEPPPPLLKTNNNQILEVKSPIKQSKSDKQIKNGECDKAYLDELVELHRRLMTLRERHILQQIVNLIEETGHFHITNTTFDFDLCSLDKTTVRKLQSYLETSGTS
# FGF22 binding: binders of human FGF22 protein, primary screen, FGF22 synaptogenesis inhibitor project, biophysical, thermal shift, single point; recombinant FGF22 thermal shift, SYPRO orange fluorescence; percent of sucrose octasulfate shift, DMSO zero; hit rate 1.5% among 340,000; Fibroblast growth factor 22 (Homo sapiens), Q9HCT0; calls only at 9.99 µM;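 active means melting point raised past a set limit in the mean and every replicate; inconclusive means no clear call; three in four hits are not shown here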
# Target sequence (Q9HCT0 whole entry, looked up): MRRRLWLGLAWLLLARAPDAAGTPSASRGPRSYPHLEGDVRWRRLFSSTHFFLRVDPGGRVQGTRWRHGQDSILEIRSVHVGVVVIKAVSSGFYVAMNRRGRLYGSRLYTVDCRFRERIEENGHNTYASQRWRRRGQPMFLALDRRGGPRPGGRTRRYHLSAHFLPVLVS
# Ecoli rRNA inh OD600: further read-out of Ecoli rRNA inh, marked with its call; OD600 change, %; measured here: OD600 growth;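 optical density of the mix in the first replicate; 0 = DMSO median and -100 = no signal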
# Ecoli rRNA inh RFP: second read-out of Ecoli rRNA inh, no call of its own (marks repeat the call); RFP signal change, %; measured here: RFP humanized mutant strains;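 first replicate; 0 = DMSO median and -100 = no signal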
# * marks the source's active call; other numbers are inactive results; i = inactive; ? = inconclusive; . = not tested or not shown; & = joins results of further samples.
SMILES,Ecoli growth,ALR H2O2 inh,Ecoli rRNA inh,Ecoli rRNA inh OD600,Ecoli rRNA inh RFP,HNF4A DNA FP,Vif A3G,MLL AF4-AF9 inh,FGF22 binding
CSCCC(NC(=O)c1cc(CC(C)C)oc1C)C(=O)O (stereo not drawn),0.71,9,.,.,.,2.6,-2%,.,.
Cc1cccc(-c2ccc([C@@H]3[C@H](CO)N4CCCCN(S(=O)(=O)c5cccc(C)c5)C[C@@H]34)cc2)c1,.,.,-28*,-3.4*,-2.0*,.,.,-0.7,i
O=C(CN1C(=O)c2cccc3cccc(c23)C1=O)N1CCN(c2ccccn2)CC1,0.73,-11,1,4,-1.7,-0.7,2%,-1.1,i
CN(C)C(=O)c1ccc(-c2ccc([C@@H]3[C@@H](CO)N4CCCCN(C(=O)C5CC5)C[C@@H]34)cc2)cc1,.,.,-2,0,0.0,.,.,2.8,i
O=C(CN1C(=O)CCC1=O)Nc1nc2c(F)cc(F)cc2s1,0.79,-5,-9,-6,-1.3,-4.3,.,-0.6,i
CCC1(c2ccc(F)cc2)NC(=O)N(CC(=O)N2c3ccccc3NC(=O)C2(C)C)C1=O (stereo not drawn),0.69,0,-7,-2,1.0,-3.1,12%,0.8,i
Cc1cc(C)c(S(=O)(=O)O)c(C)n1,0.71,-8,.,.,.,-0.3,27%,.,.
C[C@H]1CN([C@@H](C)CO)C(=O)c2ccccc2-c2ccccc2CO[C@@H]1CN(C)Cc1ccc(F)cc1,.,.,-3,-9,-2.1,.,.,2.4,i
C[C@@H]1CN([C@@H](C)CO)C(=O)c2cc(-c3cccc(F)c3)cnc2O[C@H]1CN(C)C(=O)c1cnccn1,.,.,5,1,-3.8,.,.,-0.8,i
COc1ccc(F)cc1S(=O)(=O)N1CCC2(CC1)OCCN2S(=O)(=O)c1cccs1,0.7,-4,-15,-21,2.9,-2.1,-1%,-4.1,i
CC(=O)c1ccc(OCC(=O)OCc2cc(-c3ccco3)on2)cc1,0.66,0,7,15,3.5,4.0,-1%,-16,i
COc1ccc(-c2ccc3c(c2)O[C@H](CN(C)C(=O)Nc2ccccc2F)[C@@H](C)CN([C@@H](C)CO)S3(=O)=O)cc1,.,.,-7,-5,2.9,.,.,7.1,i
CSc1nnc(N2C(=O)C(O)=C(C(=O)c3ccc(C)o3)C2c2ccc(C)cc2)s1 (stereo not drawn),0.69,5,-6,-9,7.7,-5.5,.,0.1,i
COc1ccccc1NC(=O)CSc1nnc(C)s1,0.65,.,6,6,0.4,-3.3,.,-0.2,i
CC12CC(O)C3c4ccc(O)cc4CCC3C1CC/C2=N\O (stereo not drawn),.,.,0,8,3.2,4.4,-7%,-16,i
Cc1cc2c(c(C)c1Br)C(c1ccc3c(c1)OCO3)CC(=O)O2 (stereo not drawn),0.72,.,7,-26,-9.9,-0.5,-1%,-3.1,i
OC[C@@H]1[C@@H](c2ccc(Cl)cc2)C(c2ccccc2)=NN1c1ccccc1,0.7,.,-6,-21,-2.0,9.2,-2%,-60,i
CCOC(=O)CC(NC(=O)c1cccs1)c1ccc(OCC)cc1 (stereo not drawn),0.68,-4,.,.,.,1.1,1%,.,.
Cc1cc(OCC(=O)c2ccc(C(F)(F)F)cc2)n2cnnc2n1,0.67,6,3,10,3.3,3.5,.,0.0,i
O=C(C[C@H]1CC[C@@H]2[C@H](COC[C@@H](O)CN2Cc2cccc(Cl)c2)O1)N1CCCCC1,.,.,-2,-11,-5.3,.,.,-3.2,i
COc1ccc(OCC(=O)Nc2ccncc2)cc1,0.7,-1,6,-1,-3.7,0.7,-2%,-2.4,i
O=S(=O)(N[C@@H]1CC[C@H](CCn2cc(-c3cccnc3)nn2)O[C@@H]1CO)c1ccccc1,.,.,-2,0,-1.3,.,.,-0.1,i
C[C@@H]1CN([C@@H](C)CO)C(=O)c2cc(C3=CCCCC3)cnc2O[C@H]1CN(C)S(=O)(=O)c1cn(C)cn1,.,.,-2,2,-2.2,.,.,-3.6,i
COc1ccc(OC)c(N2Cc3ccccc3C2)c1,0.77,-7,.,.,.,0.4,31%,.,.
Cc1cccc(N(CC(=O)NC2CCCC2)C(=O)c2c(C)noc2C)c1,0.7,-6,.,.,.,1.0,6%,.,.
# (list continues)
SMILES,Ecoli growth,ALR H2O2 inh,Ecoli rRNA inh,Ecoli rRNA inh OD600,Ecoli rRNA inh RFP,HNF4A DNA FP,Vif A3G,MLL AF4-AF9 inh,FGF22 binding
C[C@@H]1CCCCO[C@@H](CN(C)S(=O)(=O)c2ccc(F)cc2)[C@H](C)CN([C@H](C)CO)C(=O)c2cc(NC(=O)CCC(F)(F)F)ccc2O1,.,.,0,-7,2.4,.,.,4.5,i
Cc1ccc(S(=O)(=O)N(C)C[C@@H]2Oc3ccc(NS(=O)(=O)c4cccs4)cc3CC(=O)N([C@@H](C)CO)C[C@H]2C)cc1,.,.,-3,-10,2.1,.,.,0.4,i
CCOc1ccc(Nc2ncnc3c2nnn3Cc2ccccc2)cc1,0.69,-2,3,12,0.5,-3.8,-6%,-1.8,.
CN1CCN(C(=O)C[C@@H]2C[C@@H]3c4cc(NS(C)(=O)=O)ccc4O[C@@H]3[C@H](CO)O2)CC1,.,.,2,11,0.7,.,.,-1.7,i
COc1ccc(C(CNC(=O)c2cccc(S(=O)(=O)Nc3ccc(C)cc3)c2)N2CCCCC2)cc1 (stereo not drawn),0.68,-2,5,-50,18,1.7,0%,-7.0,i
Cc1noc(C)c1NC(=O)N1C[C@H](O)COC[C@@H]2O[C@H](CC(=O)NCC3CCCCC3)CC[C@H]21,.,.,2,-4,-2.4,.,.,0.0,i
N#CC(C#N)=C(Nc1ccccc1)c1ccccc1,0.71,18,3,-2,-1.7,-3.9,2%,0.5,i
Cc1ccc2nc(-c3cccc(SC4CCCCC4)c3)c(NCc3ccccc3)n2c1,0.76,.,-3,-18,-2.7,2.7&4.1,.,0.4&4.6,i
COCCNc1ncnc2c1ncn2[C@H]1CN(Cc2cccs2)C[C@@H](CO)O1,.,.,14,15,4.5,2.3,.,-0.4,i
COc1ccc(-c2cn[nH]c2N)cc1OC,0.69,99*,.,.,.,-0.4,2%,.,.
Cc1cc(C)n(CC(=O)N/N=C/c2ccco2)n1,.,-18,.,.,.,0.8,-2%,.,.
c1coc(CNC2CCCCCCC2)c1,0.73,-3,.,.,.,-0.7,-7%,.,.
CC(C)N(Cc1ccccc1)C(=O)C1CCCN(c2ncnc3c2nc2n3CCCCC2)C1 (stereo not drawn),0.73,-1,-24,-30,-2.3,2.6,.,1.6,i
C[C@@H]1CN([C@H](C)CO)C(=O)c2cc(Br)cnc2O[C@H]1CN(C)C(=O)Nc1ccccc1,.,.,7,-2,-1.1,.,.,-2.0,i
COc1ccc(OCCC(=O)OCC(=O)Nc2ccc(Br)cc2)cc1,0.69,1,9,12,3.1,-2.5,21%,0.3,i
Cc1ccc(C)c(CSC2=NCCN2S(=O)(=O)c2ccccc2)c1,0.7,6,-22,-39,-0.9,4.7,25%,-3.0,i
O=C(Cn1ccc([N+](=O)[O-])n1)Nc1ccccn1,0.65,-5,10,3,-1.4,1.1,4%,3.8,i
COCCNc1nc(SC)nc2sc3c(c12)CCN(C)C3,0.67,.,20,10,5.0,4.9,0%,-1.1,i
O=C(O)c1ccc(/C=N/Nc2nc3ccccc3[nH]2)cc1,.,11,14,7,1.1,1.2,.,-25,i
Cc1ccc(C2=NS(=O)(=O)N(C)C(C(=O)Nc3cc(C)n(CC(=O)N4CCC(C)CC4)n3)=C2)cc1,0.73,1,-29*,-19*,-6.3*,0.5,.,2.4,i
O=C(C[C@@H]1C[C@H]2c3cc(NS(=O)(=O)c4ccccc4)ccc3O[C@H]2[C@@H](CO)O1)NCC1CC1,.,.,-2,1,1.5,.,.,-0.1,i
COc1ccc(C(=O)N2C[C@@H]3[C@H](c4ccccc42)[C@@H](CO)N3Cc2ccc3c(c2)OCO3)cc1,.,.,-6,-13,1.4,.,.,6.7,i
O=C(CSc1nc2ccccc2s1)NC(=O)NCc1ccco1,0.71,-5,.,.,.,2.6,11%,.,.
c1ccc(Cn2c(Cn3c(-c4cnccn4)nc4ccccc43)nc3ccccc32)cc1,.,.,22,12,3.4,12,.,-1.8,i
Cc1ccc(NC(=O)COC(=O)C2CC2)cc1Cl,0.66,-1,0,-1,-3.2,-5.9,-15%,-16,i
# Following part
SMILES,Ecoli growth,ALR H2O2 inh,Ecoli rRNA inh,Ecoli rRNA inh OD600,Ecoli rRNA inh RFP,HNF4A DNA FP,Vif A3G,MLL AF4-AF9 inh,FGF22 binding
O=C(N/N=C/c1cc([N+](=O)[O-])ccc1O)c1cccc2cc[nH]c12,.,.,22,7,2.6,2.3,?,.,i
O=C(O)c1ccc(NCCC2=CCCCC2)c([N+](=O)[O-])c1,0.63,.,-28,-34,-5.1,-0.5,6%,3.2,i
COc1ccc(S(=O)(=O)Nc2cccc3c2O[C@H](CN(C)S(=O)(=O)c2ccc(F)cc2)[C@@H](C)CN([C@H](C)CO)C3=O)cc1,.,.,-4,-1,-6.6,.,.,-8.5,i
COc1ccc(NC(=O)c2ccccc2N(Cc2ccccc2)S(C)(=O)=O)cc1OC,0.69,.,-5,-12,2.9,-1.4,-2%,-8.7,.
CN(C)c1cccc(-c2nnc(SCCCC#N)o2)c1,0.65,-1,.,.,.,-2.4,0%,.,.
C[C@H]1CN([C@@H](C)CO)C(=O)Cc2cc(NC(=O)Cc3ccccc3)ccc2O[C@@H]1CN(C)Cc1ccc2c(c1)OCO2,.,.,-2,-9,2.9,.,.,3.9,i
CCOc1ccc(NC(=O)c2ccc(CC)s2)c([N+](=O)[O-])c1,0.69,-3,-3,-4,0.5,7.7,-3%,1.4,i
CCC(CC)CN1CCC(CN2C(=S)NC[C@@H]2Cc2ccccc2)CC1,.,.,8,19,0.2,.,.,4.9,i
C[C@H](CO)N1C[C@H](C)[C@H](CN(C)S(=O)(=O)c2cn(C)cn2)OCCCC[C@H](C)Oc2ccc(NC(=O)CCCN(C)C)cc2C1=O,.,.,4,9,-5.1,.,.,0.3,i
CCc1ccc(NC(=O)CN(c2cc(C)cc(C)c2)S(=O)(=O)c2c(C)[nH]c(=O)[nH]c2=O)cc1,0.69,0,.,.,.,3.3,.,.,.
Cc1ccc(S(=O)(=O)N(C)C[C@@H]2Oc3c(NC(=O)Nc4ccc(C(F)(F)F)cc4)cccc3C(=O)N([C@@H](C)CO)C[C@H]2C)cc1,.,.,1,-2,1.4,.,.,0.5,i
CN(C(=O)COC(=O)CN1C(=O)c2cccc([N+](=O)[O-])c2C1=O)c1ccccc1,0.62,-10,8,12,-0.5,-1.0,4%,-3.8,i
O=C(OCc1ccc(COC(=O)c2ccc(O)cc2)cc1)c1ccc(O)cc1,0.66,0,.,.,.,0.3,-2%,.,.
C/C(=N/NC(=O)CNC(=O)Cc1ccc(Cl)cc1)c1ccco1,.,0,17,1,0.6,0.3,-10%,.,i

# Only part of the results is shown; count on the stated rates, not on these rows.
